Screening data from PubChem BioAssay.
PABP FP inh – blocks human PABP binding to poly(A) RNA; P11940; fluorescence polarization; inhibition, % at 35 µM; 1% of 290,000 active; AID 2014;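 active = 50% or more with normal probe brightness, or confirmed in later tests; about a fifth of its hits are not listed in these tables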;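 also: calls also rest on retests at 20 µM and on dose response follow-up; controls were probe without protein and protein plus probe with vehicle; some compounds called inactive have numbers as strong as hits; many hits fall short of the cut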
Target sequence (P11940 whole entry, looked up): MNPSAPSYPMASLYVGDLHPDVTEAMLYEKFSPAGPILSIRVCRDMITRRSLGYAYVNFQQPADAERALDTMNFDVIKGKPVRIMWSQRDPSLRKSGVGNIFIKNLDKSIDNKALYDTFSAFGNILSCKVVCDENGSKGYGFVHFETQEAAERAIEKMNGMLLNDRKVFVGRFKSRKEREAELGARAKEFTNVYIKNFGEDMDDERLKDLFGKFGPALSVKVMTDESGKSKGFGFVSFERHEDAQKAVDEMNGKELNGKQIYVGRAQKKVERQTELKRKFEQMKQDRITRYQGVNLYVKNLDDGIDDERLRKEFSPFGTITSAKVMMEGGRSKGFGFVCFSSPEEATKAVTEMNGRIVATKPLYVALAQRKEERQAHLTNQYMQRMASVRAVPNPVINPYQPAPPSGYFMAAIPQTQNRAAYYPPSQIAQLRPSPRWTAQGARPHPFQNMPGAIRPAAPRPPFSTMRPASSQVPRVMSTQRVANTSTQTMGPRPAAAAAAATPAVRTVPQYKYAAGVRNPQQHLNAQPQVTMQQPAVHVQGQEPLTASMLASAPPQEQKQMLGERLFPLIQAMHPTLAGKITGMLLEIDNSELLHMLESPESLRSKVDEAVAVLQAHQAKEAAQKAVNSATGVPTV
MT1-MMP act inh – blocks activation of human MT1-MMP; HT1080 RFP-PRO-GFP cells, GFP/RFP ratio fluorescence, overnight; percent of plate control window, DMSO zero; GFP/RFP ratio change, % at 20 µM; 0.061% of 360,000 active;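 active = GFP/RFP ratio change of at least 30% with cell ATP level not reduced by more than half and red fluorescence within 50% of control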; also: strong numbers were not always called active
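Compound: 20 µM single dose, 1% DMSO / System: HT1080 RFP-PRO-GFP cells / Controls: DMSO and RFP-L50D-GFP cell wells / Read-out basis: GFP/RFP fluorescence ratio / Schedule: overnight compound exposure at 37 °C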
HIV Env fusion – inhibitors of HIV Env-mediated cell fusion; HeLa-JRFL Env/CEM21 cell fusion, luciferase; inhibition, % at 12.3 µM; 1.1% of 360,000 active;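 active = mean replicate inhibition score of at least 50 and every replicate individually at or above 50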;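 also: 0% = plate neutral controls and 100% = maraviroc near 300 nM; one replicate is shown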
CSC inhib – cancer stem cell inhibition; cancer stem cell-like cells viability, luminescence; inhibition, % at 7.5 µM; 1.1% of 300,000 active; AID 2717;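 active = mean at 75% or more and at least half the replicates too; tested in HMLE shEcad cells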;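 also: 0% = median of negative and 100% = median of positive control wells; the first replicate is given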
eIF4H FP inh – inhibitors of RNA binding by human eIF4H; Q15056; eIF4H fluorescence polarization binding assay; inhibition, % at 35 µM; 0.94% of 290,000 active; AID 2012;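 active = 50% or more with normal probe brightness, or confirmed in later tests; about a fifth of its hits are not listed in these tables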;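 also: calls also rest on retests at 20 µM and on dose response follow-up; 0% = protein and probe with vehicle and 100% = probe without protein; strong numbers were not always called active; many hits fall short of the cut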
UUG fidelity – yeast start codon fidelity modulation. S. cerevisiae UUG-firefly luciferase reporter, luminescence/redox ratio. activity score, % at 18.7 µM. 0.13% of 350,000 active;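 active = replicate mean at a twofold rise or more, about +100% in these data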;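 also: firefly luciferase made from a UUG start codon reports start codon fidelity; reporter light over untreated wells divided by growth signal over untreated wells; some hits fall short of that in this replicate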
Rce1 inhib – inhibitors of yeast Ras-converting enzyme | 0.27% of 290,000 active | yeast membranes, quenched prenylated peptide cleavage fluorescence | calls only | AID 2563 | Q03530;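 active = fall in fluorescence gain of 50% or more versus controls, with final raw signal at or below 3038400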;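 also: plate controls were neutral control wells for no effect and wells lacking membranes for full effect; tested at 10 µM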
Target sequence (Q03530 whole entry, looked up): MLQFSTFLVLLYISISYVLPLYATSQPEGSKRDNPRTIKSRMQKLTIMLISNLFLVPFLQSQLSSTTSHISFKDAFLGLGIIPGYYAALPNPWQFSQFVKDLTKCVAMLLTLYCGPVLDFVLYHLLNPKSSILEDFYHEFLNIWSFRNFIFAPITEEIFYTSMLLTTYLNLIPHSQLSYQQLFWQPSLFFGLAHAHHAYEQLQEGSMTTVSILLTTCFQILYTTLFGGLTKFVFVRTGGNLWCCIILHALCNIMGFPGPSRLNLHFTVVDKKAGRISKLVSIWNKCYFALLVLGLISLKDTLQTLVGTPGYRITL
eIF4H FP inh retest – second read-out of eIF4H FP inh, no call of its own (marks repeat the call); inhibition, %; compound at 20 µM; confirmation average;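 mean of two retest wells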
PABP FP inh retest – further read-out of PABP FP inh, marked with its call; inhibition, %; compound at 20 µM; confirmation repeats;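 mean of two retest wells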
MT1-MMP act inh RFP – recorded beside MT1-MMP act inh, whose call it bears; RFP signal change, %; measured here: RFP expression control read;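 0 = vehicle wells; hits needed this value within 50% of zero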
Numbers without * were called inactive; i = inactive; . = not tested or not shown. The order is random. Share with any hit: about 2.9%.

SMILES	PABP FP inh	MT1-MMP act inh	MT1-MMP act inh RFP	HIV Env fusion	CSC inhib	eIF4H FP inh	UUG fidelity	Rce1 inhib	others
CCCC1(c2ccccc2)NC(=O)N(CC(=O)Nc2ccc3c(c2)OCCO3)C1=O (stereo unspecified)	.	2	-1	4	-8	.	-5	.
COC(=O)c1cccc(S(=O)(=O)N2CCC(NC(=O)Nc3cccc(F)c3)CC2)c1	-2	-88	-66	39	-5	2	-9	i
CCC1(C)Cc2[nH]c(=O)c(C#N)cc2CO1 (stereo unspecified)	-16	-3	-2	14	0	2	-14	i
COc1cc(-c2nnc(SCc3ccccc3Cl)o2)cc(OC)c1OC	3	3	-4	.	-12	14	2	i
COc1ccc(OC)c2[nH]c(=O)c(CCNC(=O)CC(C)C)cc12	-10	5	5	.	-9	11	-9	i
C#CCNC(=O)C1=C[C@@H](c2csc3ccccc23)[C@H](CCCO)[C@@H](OCC)O1	-6	1	0	-4	-10	-5	-4	i
CCOc1ccc(-c2nc(CSCC(=O)NC3CC3)c(C)o2)cc1	4	2	0	.	-13	8	-15	i
Cc1nc(C)n(CC(O)COc2ccc3c(c2)CCC3)n1 (stereo unspecified)	-8	1	0	.	-8	-2	-17	i
Cc1cc(NC(NC(=O)c2ccco2)(C(F)(F)F)C(F)(F)F)no1	10	0	8	-32	-3	-1	15	i
COc1cc(OC)c2ccc(=O)oc2c1C(CC(=O)N1CCCC(C)C1)c1ccc2c(c1)OCO2 (stereo unspecified)	27	-1	-1	-10	13	71	-20	i	eIF4H FP inh retest=35;PABP FP inh retest=18
Cc1cc(/C=C2/C(=N)N3C(c4ccccc4)=CSC3=NC2=O)c(C)n1-c1ccccc1	25*	-21	-3	.	15	90*	.	i	eIF4H FP inh retest=68*;PABP FP inh retest=66*
Cc1ccc(NC(=O)C2CCCN2C(=O)NC2CCCCC2)cc1 (stereo unspecified)	2	0	5	2	5	-3	-15	i
O=C(N/N=C\c1ccc(-c2ccc(Cl)c(Cl)c2)o1)C(=O)N1CCCC1	6	-1	1	.	3	-11	-17	i
COc1ccc(NC(=O)C(=O)NCCC2CCCCN2S(=O)(=O)c2ccccc2)cc1 (stereo unspecified)	.	-10	-16	19	3	.	-13	i
Cc1c(NC2=C(Cl)C(=O)N(c3ccccc3Cl)C2=O)c(=O)n(-c2ccccc2)n1C	0	-3	3	33	-8	26	-8	i
O=[N+]([O-])c1cccc(S(=O)(=O)N2CCCC2)c1	-6	-9	-1	-6	-8	2	.	i
C[C@H](CO)N1C[C@H](C)[C@@H](CN(C)S(=O)(=O)c2ccc(F)cc2)Oc2ccc(NC(=O)Nc3ccc(C(F)(F)F)cc3)cc2C1=O	.	5	-5	0	87*	.	-31	.
CCC(=O)N(c1nnc(SCC(=O)NN2C(=O)NC3(CCC(C)CC3)C2=O)s1)C1CC1 (stereo unspecified)	.	3	6	4	12	.	-21	.
COC(=O)C(C)N(C#N)c1nc(C)nc(C)n1 (stereo unspecified)	6	0	1	.	-11	-5	-16	i
O=c1[nH]nc2n1CCCCC2	1	-4	-3	.	-10	-8	-15	i
Cc1cc(C)c(NC(=O)COC(=O)COc2ccc3c(C)cc(=O)oc3c2)c(Cl)c1	.	0	1	-1	.	.	-17	.
Cc1ccc(S(=O)(=O)N2CCOCC2)cc1NC(=O)C1=NN(c2ccccc2)C(=O)CC1	8	2	2	-1	-2	0	19	i
CCSc1cc(N2CCCC2)nc(-c2ccc(Cl)cc2)n1	.	5	4	18	33	.	-8	.
N=C(N)SCc1nc2ccccn2c1Br	1	6	10	-26	0	-7	-21	i
COc1ccc(-c2nc3ccccc3nc2-c2ccc(OC)cc2)cc1	-3	-6	-7	25	-4	-2	-19	i
CCOC(=O)CSCc1nc(-c2ccc(Cl)cc2)oc1C	1	4	3	17	-3	-4	-21	i
COc1ccc(OCCCC(=O)OCC(=O)c2ccc3c(c2)NC(=O)CO3)cc1	.	3	-1	-151	.	.	.	i
O=C(COc1ccc2c(c1)oc(=O)c1ccccc12)N[C@@H](Cc1ccccc1)C(=O)O	14	2	1	.	-13	-10	-6	i
Cc1nc2ccc(NC(=O)N3CCOCC3)cc2s1	-5	-5	5	18	7	-6	-14	i
CC(C)(C)OC(=O)N1CCC(C(=O)Nc2cccc(C(=O)N3CCCC3)c2)CC1	.	1	1	-180	.	.	76	.
Cc1cc(C)nc(N2CCCC(C(=O)Nc3cccc(Cl)c3)C2)n1 (stereo unspecified)	18	2	-1	7	-4	20	-19	i
COc1ccc(N(CC(=O)N2CCC(C(N)=O)CC2)S(=O)(=O)c2ccccc2)cc1	8	2	4	5	-8	1	4	.
CC(C)(Oc1ccc(CCNC(=O)c2ccc(Cl)cc2)cc1)C(=O)O	-3	-2	-3	.	2	4	-8	i
O=[N+]([O-])c1ccc(O)c(NC(=S)Nc2ccccc2)c1	6	0	-4	-90	12	3	-23	i
CC(=O)N[C@@H](C)C(=O)N1CCC(n2nccc2NC(=O)CCCc2ccccc2)CC1	-6	0	5	-15	0	-2	-8	i
Cc1cc(N=Nc2ccccc2C(=O)O)c(C)c(C)c1O	-8	14	2	1	-2	23	.	i
Cc1c(/C=N/NC(=O)C2(O)c3ccccc3-c3ccccc32)cnn1C	12	-3	-1	-6	-3	-7	-1	i
COc1ccccc1NC(=O)/C(=C/c1cccs1)NC(=O)c1ccco1	8	2	1	-3	-1	0	-15	i
O=C(O)c1cn(Cc2ccccc2)nc1-c1cccnc1	-11	0	-1	-9	-5	-6	.	i
COc1ccc(N2C(=S)NC3N2C(=S)NC3(C)c2ccccc2)cc1 (stereo unspecified)	-1	-1	2	-14	18	-1	.	i
CC1=NN(C(=O)COc2ccccc2)C(O)(c2cccnc2)C1 (stereo unspecified)	4	-2	3	-1	0	-10	.	.
O=C(c1cccc(C(F)(F)F)c1)C1CCCN(C(=O)Cn2cncn2)C1 (stereo unspecified)	12	1	2	-2	5	-8	-14	i
CCOCCCNC(=O)c1cn(CC(C)C)c(=O)c2cc(OC)c(OC)cc12	-8	-3	-3	-13	.	-10	0	i
COC(=O)CS(=O)(=O)c1ccsc1C(=O)Nc1ccc(F)cc1	-6	5	5	-19	.	-5	-15	i
CCc1ccc(S(=O)(=O)NC2CCCCNC2=O)cc1 (stereo unspecified)	4	-2	0	0	.	-13	-19	i
Cc1cccc(NC(=O)NNC(=O)c2ccccn2)c1	.	1	0	.	-3	.	-13	.
Cc1cc(C(=O)NCC(=O)OCC(=O)N(C(C)C)C(C)C)ccc1[N+](=O)[O-]	3	7	9	.	.	12	.	i
Cn1nc(-c2ccccc2)c(C(=O)NCC(=O)O)c1Cl	8	1	4	6	-7	-7	.	i
CCN(CC)CCn1c(SCC(=O)Nc2ccc(F)cc2)nc2c(sc3ccccc32)c1=O	-1	.	.	.	5	-7	.	i
CCOC(=O)CC(=O)Nc1nnc(CC(C)C)s1	-3	-4	0	-28	4	-15	-14	i
Cc1cc(NC(=O)C(C)SCC(=O)OC(C)C(=O)Nc2ccccc2C)no1 (stereo unspecified)	-5	1	1	-4	-5	-16	-7	i
CCCCCC(=O)NC(=S)Nc1ccc(Cl)cn1	-7	4	6	-10	-10	-9	.	i
Cc1nnc(NC(=O)CSc2nnc(C(C)NC(=O)c3ccccc3F)n2C)s1 (stereo unspecified)	12	2	5	5	-8	-10	-14	.
Cc1ccc(NC(=O)CN(C)C(=O)c2cccc(S(=O)(=O)NCc3cccs3)c2)cc1	.	0	-3	-3	.	.	1	.
COc1ccc(CCNC(=O)CCC(=O)N2CCOc3ccccc32)cc1OC	-3	2	2	-22	-10	5	32	i
O=C(COC(=O)c1ccc(Br)cc1)NCCc1ccccc1	-3	0	4	20	8	1	.	i
O=C(Nc1ccc(N2CCOCC2)cc1)c1ccc(Cl)nc1	4	5	5	.	4	15	-15	i
O=C(N/N=C/c1cnc(N2CCOCC2)s1)c1ccccc1	6	-2	2	9	-9	1	.	i
Cc1cc(C)cc(OCC(=O)OCC(=O)Nc2c(C)n(C)n(-c3ccccc3)c2=O)c1	-1	2	-5	1	-12	-3	.	i
Nc1nnn(CC(=O)N/N=C/c2ccc(Cl)cc2Cl)n1	-10	7	-2	-12	-3	-11	-12	i
Cc1ccc(NC(=O)CN2C(=O)NC(Cc3c[nH]c4ccccc34)C2=O)cc1 (stereo unspecified)	.	6	-2	.	4	.	-11	.
N#C/C(=C\c1ccc(OCC(N)=O)cc1)c1ccccc1	2	6	1	-59	-32	1	.	i
Cc1cc(C)c(C)c(S(=O)(=O)NC(C(=O)NCCc2ccco2)C(C)C)c1C (stereo unspecified)	.	2	1	-53	-11	.	-11	.

3 entries already listed, arranged by formula weight, smallest number first.
SMILES	PABP FP inh	MT1-MMP act inh	MT1-MMP act inh RFP	HIV Env fusion	CSC inhib	eIF4H FP inh	UUG fidelity	Rce1 inhib	others
Nc1nnn(CC(=O)N/N=C/c2ccc(Cl)cc2Cl)n1	-10	7	-2	-12	-3	-11	-12	i
O=C(COC(=O)c1ccc(Br)cc1)NCCc1ccccc1	-3	0	4	20	8	1	.	i
Cc1ccc(NC(=O)CN2C(=O)NC(Cc3c[nH]c4ccccc34)C2=O)cc1 (stereo unspecified)	.	6	-2	.	4	.	-11	.

Structures above with an aryl methoxy group:
SMILES	PABP FP inh	MT1-MMP act inh	MT1-MMP act inh RFP	HIV Env fusion	CSC inhib	eIF4H FP inh	UUG fidelity	Rce1 inhib	others
COc1cc(-c2nnc(SCc3ccccc3Cl)o2)cc(OC)c1OC	3	3	-4	.	-12	14	2	i
COc1ccc(OC)c2[nH]c(=O)c(CCNC(=O)CC(C)C)cc12	-10	5	5	.	-9	11	-9	i
COc1cc(OC)c2ccc(=O)oc2c1C(CC(=O)N1CCCC(C)C1)c1ccc2c(c1)OCO2 (stereo unspecified)	27	-1	-1	-10	13	71	-20	i	eIF4H FP inh retest=35;PABP FP inh retest=18
COc1ccc(NC(=O)C(=O)NCCC2CCCCN2S(=O)(=O)c2ccccc2)cc1 (stereo unspecified)	.	-10	-16	19	3	.	-13	i
COc1ccc(-c2nc3ccccc3nc2-c2ccc(OC)cc2)cc1	-3	-6	-7	25	-4	-2	-19	i
COc1ccc(OCCCC(=O)OCC(=O)c2ccc3c(c2)NC(=O)CO3)cc1	.	3	-1	-151	.	.	.	i
COc1ccc(N(CC(=O)N2CCC(C(N)=O)CC2)S(=O)(=O)c2ccccc2)cc1	8	2	4	5	-8	1	4	.
COc1ccccc1NC(=O)/C(=C/c1cccs1)NC(=O)c1ccco1	8	2	1	-3	-1	0	-15	i
COc1ccc(N2C(=S)NC3N2C(=S)NC3(C)c2ccccc2)cc1 (stereo unspecified)	-1	-1	2	-14	18	-1	.	i
CCOCCCNC(=O)c1cn(CC(C)C)c(=O)c2cc(OC)c(OC)cc12	-8	-3	-3	-13	.	-10	0	i
COc1ccc(CCNC(=O)CCC(=O)N2CCOc3ccccc32)cc1OC	-3	2	2	-22	-10	5	32	i
